Screens from PubChem BioAssay.
GLA inh pH 4.5: qHTS Assay for Inhibitors of Human alpha-Galactosidase at pH 4.5; AID 1467, 2008; activity change, negative = inhibition, % at 105 µM; purified enzyme, 4-MU-alpha-Gal fluorescence, pH 4.5; 230,000 tested, under 10 active; inconclusive = small, poorly fitted or top-dose-only inhibition, or a rising curve; inactive = flat fitted curve, though single readings scatter; no compound was filed as active;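 note: 0% = full activity with enzyme and -100% = basal without enzyme; dose as in the result columns while the protocol names 77 µM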
Target sequence (P06280 whole entry, looked up): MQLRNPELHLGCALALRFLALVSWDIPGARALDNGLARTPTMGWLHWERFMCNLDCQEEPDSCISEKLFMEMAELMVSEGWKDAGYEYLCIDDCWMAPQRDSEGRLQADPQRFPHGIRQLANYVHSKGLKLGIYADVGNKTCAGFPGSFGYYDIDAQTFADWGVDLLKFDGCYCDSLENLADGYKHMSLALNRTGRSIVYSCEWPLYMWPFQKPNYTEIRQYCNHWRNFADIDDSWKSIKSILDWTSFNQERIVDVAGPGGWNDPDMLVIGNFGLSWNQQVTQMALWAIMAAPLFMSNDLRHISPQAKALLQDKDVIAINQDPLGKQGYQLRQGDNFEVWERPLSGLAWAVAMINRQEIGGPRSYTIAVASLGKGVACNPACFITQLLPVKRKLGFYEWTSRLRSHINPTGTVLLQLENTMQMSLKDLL
miR-21 FLuc: qHTS Assay for Modulators of miRNAs and/orActivators of miR-21. 340,000 tested, under 10 active. HeLa miR-21 FLuc reporter, luciferase, 48 h. Potency, µM (series often up to 38.3 µM), without a hit: top-dose reporter change, positive = more light; active = well fitted rising curve with a large enough effect; inconclusive = small, poorly fitted or top-dose-only effect; inactive = no such curve, though single readings can be large or run the other way;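 note: % of control where 0% means no effect; miR-21 action dims this reporter so a rising signal means less miR-21 action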
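HeLa cells stably expressing CMV-driven firefly luciferase with a downstream miR-21 binding sequence, endogenously expressing miR-21, were treated with titrations (up to about 40uM final) for 48 hours at 37 degree Celsius. Luciferase luminescence was read after lysis.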
Rango dissoc inh: qHTS Assay for Inhibitors of RanGTP induced Rango (Ran-regulated importin-beta cargo) - Importin beta complex dissociation; Snurportin-1 (Homo sapiens) + GTP-binding nuclear protein Ran (Homo sapiens) + Importin …; Biochemical FRET Rango-importin beta, RanGTP-induced dissociation; Potency, µM (top dose mostly 46.1 µM), without a hit: at the highest dose activity change, negative = inhibition; actives 0.071% (n = 340,000); active means falling FRET ratio curve, often poorly fitted, with flat reads before Ran was added; inconclusive means other falling curves, or compound fluorescence or quenching; inactive means flat or rising ratio curve;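 note: potency is the fitted concentration of half-maximal effect; % of control where 0% means no effect; nearly all actives have a fitted effect of over 45% in size; -100% = wells without RanGTP and RCC1; the record marks most hits as doubtful in a second field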
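Rango (0.1 uM)–importin beta (0.25 uM) complex; RanGTP-RCC1 trigger; 45 min RT; CFP/YFP FRET read.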
Rango-impB inh: qHTS Assay for Inhibitors of Rango (Ran-regulated importin-beta cargo) - Importin beta complex formation | Importin subunit beta-1 (Homo sapiens), Q14974 | Rango CFP/YFP FRET sensor + importin beta, 45 min | Potency, µM (series often up to 92.2 µM), for inactives: at the highest dose inhibition of complex formation | actives 0.031% (n = 340,000) | AID 540263, 2011; active = rising FRET ratio curve, often small or poorly fitted; inconclusive = mostly compound fluorescence or quenching in the first reads; inactive = flat curves in all reads;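 note: potency is the fitted concentration of half-maximal effect; 0% = DMSO wells and 100% = buffer wells lacking importin beta; nearly all actives have a fitted effect of over 15% in size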
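FRET biosensor (snurportin 1 IBB flanked by EYFP and cerulean), 50 nM, with compound 5 min, then 0.125 microM importin beta in PBS, 1 mM DTT, 0.02% Tween-20, 0.1% BSA. CFP/YFP ratio read after 45 min at room temperature; pre-read flags interference.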
Numbers without * were called inactive; ? = inconclusive; nt = not tested or not shown; & = joins results of further samples.

SMILES	GLA inh pH 4.5	miR-21 FLuc	Rango dissoc inh	Rango-impB inh
COc1cccc(-c2nnn(CC(=O)Nc3ccc(C)cc3C)n2)c1OC	2	0%	-3%	-1.3%
CC(C)(C)c1ccc(S(=O)(=O)N2CC(=O)Nc3ccccc32)cc1	-3	-6%	-20%	-3.5%
O=C(NC(=S)N1CCN(c2ccccc2)CC1)c1ccc(S(=O)(=O)N2CCOCC2)cc1	-6	5%	6%	-0.5%
C=C(C)c1cccc(C(C)(C)NC(=O)N2CCCCC2CC)c1 (centres undefined)	6	0%	2%	-2.2%
O=C(NC(C(=O)N/N=C/c1ccccc1)c1n[nH]c(=O)c2ccccc12)c1ccccc1 (centres undefined)	10	-22%	2%	4.8%
CCCn1cnc2scc(-c3ccc(C)cc3)c2c1=O	-2	-12%	-4%	-1.5%
O=C(CCSc1ccccc1)N1CCN(c2ccccc2)CC1	8	-62%	-19%	0.1%
O=C(CN1C(=O)c2ccccc2C1=O)N1CCOCC1	1	2%	-2%	-4.4%
CC(C)(C)OC(=O)N(CCc1ccccc1)Cc1cccc(OCc2cccc(NC(=O)C3CCC3)c2)c1	nt	nt	-3%	2.7%
COc1ccc(CN2CCN(CCCCOc3ccc(Cl)cc3)CC2)c(OC)c1OC	-10	8%	-4%	10%
CCc1c(C)c2ccc(O)c(CN3CCCC3)c2oc1=O	nt	-6%	?	?
COCC(=O)N[C@@H]1c2ccccc2CC[C@@H]1OCc1ccccc1	nt	nt	-3%	-0.8%
Cc1cc2n(n1)C(c1c[nH]c3ccccc13)Nc1ccccc1-2 (centres undefined)	-7	-9%	-7%	-3.5%
COc1ccc2nc(/C=N/NC(=O)CCNC(=O)OC(C)(C)C)ccc2c1	-8	-38%	-7%	5.3%
O=[N+]([O-])c1ccc(N2CCOCC2)cc1	nt	nt	-3%	-0.5%
Cc1ccc(N2CC(C(=O)N3CCC(c4nc5ccccc5[nH]4)CC3)CC2=O)cc1C (centres undefined)	nt	nt	-4%	0.6%
Nc1c(C(=O)O)cnc2c(-c3ccc(Cl)cc3)cnn12	5	-38%	7%	4.8%
COC(=O)C1=C(CSc2nc3c(cc2C#N)CN(C)CC3)OC(N)=C(C#N)C1c1ccc(F)cc1 (centres undefined)	-4	-1%	?	?
COc1ccc(NC(=O)[C@@H]2[C@@H]3C(=O)N(C4CCCCC4)C(=O)[C@@H]3C3c4ccccc4C=CN32)cc1 (some centres undefined)	0	-2%	-30%	?
COc1ccc2[nH]c(=O)c(CN(CCc3cccc(C)c3)C(C)=O)cc2c1	-9	10%	7%	-0.2%
CC(=O)N(/N=C1/C(=O)Nc2ccccc21)c1ccccc1	nt	-34%	-9%	3.3%
C=CCn1c(=O)c2ccc(C(=O)NCc3ccccc3)cc2n(Cc2ccc(C)cc2)c1=O	2	0%	-11%	-0.5%
Cc1ccc(NC(=O)c2ccc(S(=O)(=O)NCC3CCCO3)cc2)cc1C (centres undefined)	3	-3%	12%	-3.3%
CCn1c(N2CCN(CC(=O)c3c(C)n(C)c4ccc(OC)cc34)CC2)nc2c1c(=O)[nH]c(=O)n2C	6	-2%	-7%	-0.7%
COC(=O)N/N=C/c1ccccc1OCCOc1ccc(OC)cc1	-2	0%	-9%	-1.3%
Cn1cc(/C=C/C(=O)N2CCCC(C(=O)c3cccc(C(F)(F)F)c3)C2)cn1 (centres undefined)	-9	-3%	0%	0.5%
O=C(CN(C(=O)CNC(=O)c1ccco1)c1ccccc1F)NC1CCCCC1	nt	-1%	-4%	2.0%
O=C(NCc1ccco1)C1CCN(S(=O)(=O)c2cccc3cccnc23)CC1	-3	-2%	3%	0.0%
CCNS(=O)(=O)c1cc(OC)c(Cl)cc1OC	20	0%	14%	2.0%
Cc1nn(C)c(Cl)c1CN1CCC(n2nccc2NC(=O)C2CCCC2)CC1	nt	-5%	3%	0.2%
CN(Cc1cccs1)C(=O)CSc1nc2ccccc2[nH]1	-8	-49%	10%	-1.2%
O=C(Nc1ccc2c(c1)OCO2)C1CCCN1C(=O)OCc1ccccc1 (centres undefined)	5	-5%	24%	0.1%
COc1ccc(NC(=O)c2ccc3ccccc3n2)cc1S(=O)(=O)N1CCCCC1	-11	-49%	-9%	0.9%
COc1ccc2[nH]c(=O)c(CN(C(=O)NC3CCCCC3)C3CCCC3)cc2c1	-11	0%	-10%	3.7%
CCCNC(=O)C1CN(C(=O)c2nn(Cc3ccccc3)c(=O)c3ccccc23)c2ccccc2O1 (centres undefined)	nt	nt	-15%	0.3%
Cc1cccc(C)c1NC(=O)C(NC=O)c1ccccc1 (centres undefined)	-9	-6%	13%	0.2%
CC(C)(ONC(=O)Nc1ccccc1Cl)C(=O)O	7	-6%	4%	1.9%
COc1ccc([N+](=O)[O-])cc1NC(=S)NC(NC(C)=O)C(Cl)(Cl)Cl (centres undefined)	-3	6%	19%	0.0%
O=S(=O)(CCN1CCSCC1)c1ccc(Cl)cc1	-20	0%	16%	3.5%
O=C(O)c1cc2c(cc1Cl)N1CCCCCC1=NS2(=O)=O	-26	1%	-18%	1.9%
O=C(NC1CCCC1)c1n[nH]c2ccccc12	8	-34%	-8%	-0.5%
Cc1ccc2[nH]c(O)c(N=NC(N)=S)c2c1	-27	12%	0%	-4.0%
O=C(CNC(=O)c1cc(=O)[nH]c2ccccc12)Nc1ccc(F)c(F)c1	5	-2%	0%	1.0%
Cc1ccc(/C=[N+](\[O-])c2ccc(N(C)C)cc2)c2nsnc12	-19	-1%	5%	1.0%
N#CC1(Cc2ccccc2)c2ccccc2C=CN1C(=O)c1ccccc1 (centres undefined)	-1	-3%	15%	4.4%
O=C1CC(N2CCCCC2)C(=O)N1c1ccccc1 (centres undefined)	3	-6%	1%	-1.4%
COc1cccc2c1cc1c(=O)n(CC(=O)N3CCC(C)CC3)nc(C)n12	nt	-3%&-3%	5%	0.4%
Cc1cc(=O)oc2cc(OCC(=O)N3CCOCC3)ccc12	3	-6%	0%	0.3%
CSc1ccccc1NC(=O)Nc1cccc(Cl)c1Cl	5	-15%	1%	0.8%
CCOCC(=O)Nc1nc2ccc(OCC)cc2s1	3	-36%	-7%	0.1%
O=C(NCCOc1ccc(F)cc1)C1CCC(=O)N(CCN2CCOCC2)C1 (centres undefined)	nt	-2%	16%	-1.9%
Cn1c(NC(=O)C(C)(C)Oc2ccc(Cl)cc2)cc(=O)n(C)c1=O	2	4%	13%	-3.6%
CCOC(=O)N1CCN(c2cc(=O)n(Cc3ccc(F)cc3)c(=O)[nH]2)CC1	-5	-4%	9%	-0.8%
c1ccc(CCn2c(SCc3ccccc3)nnc2-c2ccncc2)cc1	-2	-4%	11%	-5.1%
COc1cccc(NC(=S)N2CCN(C(c3ccccc3)c3ccccc3)CC2)c1	-7	-19%	7%	1.6%
CCN(CC)S(=O)(=O)c1ccc(NC(=O)c2cc(=O)[nH]c3ccccc23)cc1	1	3%	1%	-2.4%
CCN1CCN(c2ccc(NC(=O)c3cccc4ncccc34)cc2)CC1	0	-5%	0%	-2.4%
O=C(O)CC(NC(=O)c1cccc(F)c1)c1ccc(OC2CCCC2)cc1 (centres undefined)	nt	-5%	1%	-2.4%
Cc1ccc(S(=O)(=O)CNC(=S)c2cccc(Cl)c2)cc1	5	-3%	13%	-2.4%
Cc1nn(Cc2ccc(Cl)c(Cl)c2)c(C)c1NC(=O)c1cc(-c2ccc3c(c2)OCO3)on1	1	-4%	1%	0.2%

Carrying on.
SMILES	GLA inh pH 4.5	miR-21 FLuc	Rango dissoc inh	Rango-impB inh
Cc1cccc(N2CCN(Cc3c(C)n(C)n(-c4ccccc4)c3=O)CC2)c1C	2	-4%	-5%	0.1%
COC(=O)c1c(C)[nH]c(C(=O)C(C)OC(=O)C2CC(=O)N(c3ccc(C)cc3)C2)c1C (centres undefined)	nt	nt	13%	2.5%
O=C(Oc1ccc(/C=N/Nc2ccccc2)cc1)c1ccccc1	0	-23%	1%	-1.3%
CC(=O)c1ccc(N2CCN(C(=O)/C=C/c3ccc(S(=O)(=O)NCc4ccco4)cc3)CC2)cc1	1	28%	-18%	1.6%
CC(=O)Nn1cc2c(c1-c1ccccc1)c(=O)n(C)c(=O)n2C	3	-3%	6%	-3.5%
Cc1ccc(/C=C/C(=O)OCC(=O)NC(C)C)o1	-3	-12%	7%	0.0%
O=C(CSc1nc2ccccc2c(=O)n1-c1ccc(F)cc1)Nc1ccc2c(c1)CCC2	-2	-5%	4%	3.1%
Cc1cc(N)c2ccccc2n1	-1	12%	?	0.4%
O=C(Nc1cccc(Cl)c1)C1C2C=CC3(O2)C1C(=O)N(CCN1CCCCC1)C3C(=O)NC1CCCCC1 (centres undefined)	nt	-3%	16%	3.2%
COCCN1C(=O)N(c2cccc(OC)c2)C(=O)C1CC(=O)Nc1cccc(F)c1 (centres undefined)	nt	2%	0%	-4.5%
CCCn1c(=S)[nH]c2sc3c(c2c1=O)CCCC3	nt	-7%	12%	0.8%
Cc1ccc(NC(=O)CC2Oc3ccc(C)cc3NC2=O)c(C)c1 (centres undefined)	nt	-3%&18%	3%	1.4%
CC1Sc2ccc(C(=O)O)cc2NC1=O (centres undefined)	3	-1%	7%	4.7%
CCCOC(=O)c1cccc(NC(=O)COc2ccc([N+](=O)[O-])cc2)c1	-3	14%	7%	0.7%
Cc1ccc(C(=O)N/N=C2\CC3CC=CC23)c(C)c1 (centres undefined)	3	-34%	-12%	-0.2%
CCS(=O)(=O)N1CCN=C1SC(C)c1ccccc1 (centres undefined)	nt	-14%	26%	4.2%
Cc1ccc2nc(C3CCN(C(=O)c4ccco4)CC3)[nH]c2c1	0	-5%	-3%	-1.5%
COc1ccc(OCc2nnc(SCC(=O)c3ccccc3)o2)cc1	-25	-7%	10%	-3.1%
CC(C)(C)NC(=O)c1cccc(NC(=O)Cc2ccc(Br)cc2)c1	-4	-2%	-7%	0.0%
COc1cc2c(cc1OC)-c1cc(OCc3ccccc3Cl)nc(=O)n1CC2	nt	-17%	2%	2.0%
Clc1ccccc1-c1nnc2sc(-c3ccccn3)nn12	7	-12%	4%	-3.5%
O=C(COC(=O)c1ccc(O)cc1)NCCc1c[nH]c2ccccc12	nt	nt	-3%	-0.3%
CSC(=Nc1ccccc1)C1=C(O)COC1=O	3	-4%	-2%	0.6%
COC(=O)c1ccccc1NC(=O)C1CCN(c2ncnc3c2nc2n3CCCCC2)CC1	nt	-2%	-8%	-1.3%
C=CCn1c(COc2ccccc2)nc2ccccc21	nt	-32%	29%	-3.2%
O=C1CCCc2c1nc(-c1ccc([N+](=O)[O-])cc1)n2O	-20	0%	0%	?
Cc1nn(C)c(C)c1/C=C(\C#N)C(N)=O	-1	-2%	-8%	3.7%
N=c1c2cn[nH]c2nc(SCC(=O)c2ccc(Br)cc2)n1-c1ccc(Br)cc1	8	-3%	-1%	0.8%
Cc1ccc(S(=O)(=O)N2CCOCC2)cc1C(=O)NC(C)CCc1ccccc1 (centres undefined)	nt	nt	-6%	-2.2%

Five of the compounds above, with the structure last:
GLA inh pH 4.5	miR-21 FLuc	Rango dissoc inh	Rango-impB inh	Molecule
nt	-32%	29%	-3.2%	C=CCn1c(COc2ccccc2)nc2ccccc21
-20	0%	0%	?	O=C1CCCc2c1nc(-c1ccc([N+](=O)[O-])cc1)n2O
-1	-2%	-8%	3.7%	Cc1nn(C)c(C)c1/C=C(\C#N)C(N)=O
8	-3%	-1%	0.8%	N=c1c2cn[nH]c2nc(SCC(=O)c2ccc(Br)cc2)n1-c1ccc(Br)cc1
nt	nt	-6%	-2.2%	Cc1ccc(S(=O)(=O)N2CCOCC2)cc1C(=O)NC(C)CCc1ccccc1 (centres undefined)

This is a subset. The share of hits here may be higher or lower than overall.
